CBX7 AlphaScr – inhibitors of human CBX7 binding to H3K27me3 peptide. AlphaScreen His6-CBX7 / biotin-H3K27me3 peptide binding; active compounds read low. 66,000 compounds, 1.1% hits. normalised signal (fraction of DMSO) (concentration not given with the values); in the data active = normalised signal below about 0.5;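 note: 100 nL library stock added to about 20 µL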
Target sequence (O95931 whole entry, looked up): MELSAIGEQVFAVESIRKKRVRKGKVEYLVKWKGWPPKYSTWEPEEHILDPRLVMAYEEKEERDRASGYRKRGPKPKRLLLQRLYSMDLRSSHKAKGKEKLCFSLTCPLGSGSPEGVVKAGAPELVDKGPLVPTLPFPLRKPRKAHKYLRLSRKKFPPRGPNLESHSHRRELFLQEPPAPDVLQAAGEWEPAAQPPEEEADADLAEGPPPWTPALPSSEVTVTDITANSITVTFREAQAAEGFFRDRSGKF
CBX7 AlphaScr z-score – recorded beside CBX7 AlphaScr, whose call it bears; z-score; measured here: z-score of CBX7 signal; some inactives read as strong as hits; reference of the scale not given here;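 same signal on another scale; lower means less binding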
An asterisk follows results filed as active.

SMILES	CBX7 AlphaScr	CBX7 AlphaScr z-score
CCc1ccc(NS(=O)(=O)c2ccc3[nH]cc(C(=O)NCC4CCCO4)c(=O)c3c2)cc1 (configuration not stated)	0.85	-1.9
CCCCc1ccc(NC(=O)c2cnc3scc(C)n3c2=O)cc1	1.2	7.7
O=C(CSc1nnnn1-c1ccc(F)cc1F)Nc1ccc2c(c1)OCCO2	1.1	0.068
COC(=O)c1c(NC(=O)c2cccc(C(F)(F)F)c2)sc2c1CCCCC2	1.6	21
CCOCCCNC(=O)C1CCC(=O)N1Cc1ccc(C)cc1 (configuration not stated)	0.99	-0.012
COc1ccc(-c2nnc(SCC(=O)NC3CC3)n2-c2ccccc2)cc1	1.5	4.2
Cc1ccc(C2CC(=O)Nc3cc4c(cc32)OCO4)cc1 (configuration not stated)	0.98	-0.64
CCSc1nnc(-c2ccc3[nH]c(C)c(C)c3c2)n1-c1ccccc1	0.94	-1.8
COc1ccc(-c2nn(-c3ccccc3)cc2C(=O)Nc2ccc(C)cc2)cc1OC	0.87	-1.5
O=c1[nH]c2ccccc2n1CCCOc1ccccc1	0.97	-1.8
Cc1nc2c(C(=O)NCc3cccnc3)cnn2c(C)c1Cc1ccccc1Cl	0.97	-1.4
CCCCOc1nnc(-c2ccc(OC)cc2)c2ccccc12	0.86	-0.55
CCOC(=O)N1CCN(C(=O)CSc2nnc(CNC(=O)c3ccc(OC)c(OC)c3)o2)CC1	1	1.4
Cc1c(Cl)cccc1Nc1cc(C)c2ccc(O)cc2n1	1	0.13
Fc1cccc(CSc2nc3ccncc3n2Cc2cccc(Cl)c2)c1	0.96	-2
COc1ccc(C(=O)Nc2c(-c3cccs3)nc3ccccn23)cc1OC	1	0.079
Nc1nonc1C(=O)NCc1ccccc1	1.2	1.4
O=c1nc(/C=C/c2ccc(OCc3ccc(F)cc3)cc2)cc(C(F)(F)F)[nH]1	0.85	-4.1
O=C(CC1Nc2ccccc2NC1=O)Nc1ccc(N2CCCCC2)cc1 (configuration not stated)	0.93	-2.8
Cc1cccc(-c2nc(CSCC(=O)Nc3cc(C)ccc3C)c(C)o2)c1	0.92	-1.1
COc1ccc(C(=O)NCCCc2nc3ccccc3n2C)cc1OC	1	0.41
Cc1cc2nc(Nc3nc(C)c(Cc4ccccc4)c(=O)[nH]3)nc(C)c2cc1C	0.89	-1.2
COc1ccc(CC(=O)Nc2ccc(-c3noc(-c4ccccc4Br)n3)cc2)cc1	1.3	3.2
FC(F)(F)c1ccc2nnc(-c3ccc(Br)cc3)n2c1	1.1	0.68
COCCNC(=O)c1c[nH]c2ccc(S(=O)(=O)Nc3ccc(C(C)C)cc3)cc2c1=O	1.1	1.7
COc1cc(OC)cc(C(=O)Nc2ccc3oc(-c4ccc(C)cc4)nc3c2)c1	0.98	-1
CCC(=O)N1CCc2cc(S(=O)(=O)NC(Cc3ccccc3)C(=O)O)ccc21 (configuration not stated)	0.98	-0.61
Cc1ccc(-n2c(Cc3cccn3C)nnc2SCC(=O)Nc2cccc(Cl)c2)cc1	0.77	-5.5
CCOC(=O)c1sc2nc(C)nc(NC3CCCCC3C)c2c1C (configuration not stated)	1.1	5.2
O=C(Nc1cc(C(F)(F)F)ccc1Oc1ccc(Cl)c(Cl)c1)c1cccnc1	0.94	-1.7
O=C(CN1C(=O)CCSc2ccccc21)NCc1ccc2c(c1)OCO2	1	0.85
COc1ccc(N2Cc3cccc(C(=O)Nc4cc(F)cc(F)c4)c3C2=O)cc1	0.88	-2.9
O=C(c1c(F)cccc1F)N1CCN(c2ccc3nncn3n2)CC1	0.95	-0.96
O=C1CN(C(=O)CCC2CCCCC2)C(c2ccc(F)cc2)c2cc(F)ccc2N1 (configuration not stated)	0.86	-0.57
Cc1nc2c(C(=O)N3CCOCC3)cnn2c(C)c1Cc1ccc(F)cc1	1.1	2.4
Cc1csc(-c2cc3ccc(OC/C=C/c4ccccc4)cc3oc2=O)n1	1	1.4
Cc1cccc(CN2C(=O)c3ccccc3Sc3ccc(C(=O)NCC4CCCO4)cc32)c1 (configuration not stated)	0.97	-0.92
Cc1ccc(C(C(=O)NC2CCCC2)N(C)C)cc1 (configuration not stated)	1	0.95
CC(NC(=O)c1cc(=O)[nH]c2ccc(S(=O)(=O)N3CCCCC3C)cc12)c1ccccc1 (configuration not stated)	1	0.58
CC(NC(=O)C(=O)NCc1ccc(F)cc1)C(c1cccs1)N1CCN(Cc2ccccc2)CC1 (configuration not stated)	1.2	1.7
COC(=O)c1cc2oc(C)cc2n1Cc1nc(-c2ccccc2)oc1C	0.76	-0.97
O=C(Cn1cnc2c(cnn2-c2ccccc2)c1=O)N1CCCCC1	1.1	2.1
COc1ccc(C2c3[nH]c4ccccc4c3CCN2C(=O)c2ccc(Cl)cc2)cc1 (configuration not stated)	0.64	-5.7
COc1ccc(OC)c(S(=O)(=O)n2c(/C=C/c3ccc(SC)cc3)nc3ccccc32)c1	1.3	4.1
O=C(Cc1c(C(=O)O)[nH]c2ccc(Cl)cc12)NCC1CCCO1 (configuration not stated)	1.2	1.5
Cc1ccc(-c2noc(CCC(=O)NCCCN3CCCCCC3)n2)cc1	1.6	8.6
O=C1C2C3c4ccccc4C(c4ccccc43)C2C(=O)N1CCO (configuration not stated)	0.96	-0.42
CCCOc1ccccc1C1CC(=O)NC2=C1C(=O)CCC2 (configuration not stated)	1.2	1.6
CCC(=O)N1CCc2cc(S(=O)(=O)NCCC(=O)N3CCN(c4ccccc4F)CC3)ccc21	1	0.39
Cc1cccc(-n2ccnc2SCC(=O)Nc2ccccc2F)c1	0.99	-0.012
Cc1cc(S(=O)(=O)N2CC(=O)N(CCc3ccccc3)C(=O)C2)ccc1F	1.1	1.5
CC(C)N(Cc1nc(-c2ccc(Cl)cc2)no1)C(=O)c1ccc(C(C)(C)C)cc1	0.94	-0.55
O=C(Nc1nonc1C(=O)c1ccccc1)c1ccccc1F	0.98	-0.39
O=C(Cn1cc2c(n1)CCCC2)NCCc1ccc(Cl)cc1	1.1	2.6
CCN(CCCNC(=O)Cc1ccc(NC2=NC3CS(=O)(=O)CC3S2)cc1)c1ccccc1 (configuration not stated)	0.97	-0.36
O=C(CCCCn1c(=O)[nH]c2ccccc2c1=O)N1CCN(c2cccc(C(F)(F)F)c2)CC1	0.76	-4.7
Cc1ccc(OCC(=O)Nc2ccc(S(=O)(=O)Nc3nc(C)cc(C)n3)cc2)cc1	1	0.092
COc1ccc(N2Cc3cccc(C(=O)NCc4cccc(Cl)c4)c3C2=O)cc1	1.1	2.2
CCCNC(=O)c1ccc2c(c1)N(Cc1ccc(F)cc1)C(=O)CS2	0.78	-2.3
O=C1CCc2cc(S(=O)(=O)N3CCC(C(=O)NC4CCCCCCC4)CC3)ccc2N1	0.95	-0.92

The results go on:
SMILES	CBX7 AlphaScr	CBX7 AlphaScr z-score
COc1ccccc1NC(=O)NCCCN1CCN(c2cccc(Cl)c2)CC1	1.1	0.47
CCN(Cc1ccccc1)S(=O)(=O)c1ccc(C(=O)Nc2nnc(-c3cccs3)o2)cc1	0.96	-1
CC1CCCCC1NC(=O)Cn1nc(-c2ccccc2)c2cc(Cl)ccc21 (configuration not stated)	1.1	1.7
CCOC(=O)N1CCC(Nc2c(NCCN3CCN(c4ccccc4F)CC3)c(=O)c2=O)CC1	1	0.67
Cc1ccc(CCN2CC(C(=O)NCC3CCCO3)CC2=O)cc1 (configuration not stated)	0.99	-0.38
COc1cccc(C(=O)N2CC(=O)Nc3ccc(F)cc3C2c2ccc(F)cc2)c1OC (configuration not stated)	1	0.15
CC(CCc1ccccc1)NC(=O)CN1CCN(Cc2ccccc2F)C1=O (configuration not stated)	0.98	-0.39
COc1ccccc1-c1cc(C(F)(F)F)nc(N2CCOCC2)n1	1.5	3.9
COc1ccc(Cl)cc1N(C)C(=O)Cc1c(C(=O)O)n(C)c2ccccc12	1.1	1.6
COc1ccc(OC)c(Nc2nc3nonc3nc2Nc2cccc(Br)c2)c1	1.1	1.6
COc1cccc(-c2nc(CS(=O)(=O)CC(=O)NCCCN3CCOCC3)c(C)o2)c1	1.1	0.26
COc1ccc(S(=O)(=O)N2Cc3ccccc3CC2C(=O)N2CCCCC2)cc1OC (configuration not stated)	0.95	-1.2
CCN(CC)CCCNC(=O)c1nnn(Cc2ccccc2)c1N	0.97	-0.26
COc1cc2c(-c3cc(Br)ccc3O)nc3c(c(-c4ccccc4)nn3-c3ccccc3)c2cc1OC	1	0.7
CCn1cc(C(=O)Nc2ccc3c(c2)OCCO3)c2cc(OC)c(OC)cc2c1=O	0.95	-1.3
CN(C)S(=O)(=O)c1ccc(C(=O)Nc2nc(-c3ccc(Br)cc3)cs2)cc1	1	0.15
CN1CCN(CCCNC(=O)c2ccc3c(c2)NC(=O)c2ccccc2N3)CC1	1.2	1.2
O=c1c2ccccc2n2c(=O)[nH]nc2n1-c1ccccc1	0.81	-2.3
COc1ccc(NC(=O)CC2C(=O)N(c3ccc(OC)cc3)C(=O)N2Cc2ccc(C)cc2)cc1 (configuration not stated)	1	0.21
Cc1ccn2c(Nc3ccccc3)c(-c3ccccn3)nc2c1	0.06*	-20*
CCOc1ccc(CN2C(=O)CCC2(C)C(=O)NC2CCCCCC2)cc1 (configuration not stated)	0.91	-2.6
Cc1ccc(CCNC(=O)C2CCCN2S(=O)(=O)c2ccc3c(c2)CCC(=O)N3)cc1 (configuration not stated)	0.93	-1.3
Cc1cc(Sc2nnc(-c3ccccc3)n2C)c2ccccc2n1	1	0.33
O=C(NCCC1=CCCCC1)c1ccc2c(c1)N(Cc1cccc(Cl)c1)C(=O)CS2	0.98	-0.33
O=C1CSc2ccc(C(=O)NCc3cccnc3)cc2N1	1.1	4.2
COCCn1c(SCC(=O)Nc2ccc(C)c(Cl)c2)nnc1-c1c[nH]c2ccccc12	1	0.04
Cc1ccc(-c2noc(COc3ccc(Br)c(C)c3)n2)cc1	1.2	3.2
Cc1ccc(-n2c3c(cc(C(=O)NC(C)(C)C)c2=O)C(=O)CC(C)(C)C3)cc1	1	0.3
O=C(Nc1ccc(F)c(Cl)c1)c1cc(-c2cccc(Cl)c2)on1	1.1	2.2
Cc1[nH]c(=O)c(C#N)c2c1CCCC2	1.1	1.7
NCCNC(=O)c1c(O)c2ccccc2oc1=O	0.64	-5.6
CC(=O)N1CCc2cc(S(=O)(=O)NC(CC(C)C)C(=O)Nc3cc(C)ccc3C)ccc21 (configuration not stated)	0.91	-2.1
c1ccc2[nH]c(CCn3c4c(c5ccccc53)CCCC4)nc2c1	1.2	1.4
CCN1CCN(CCCNC(=O)c2cc(=O)[nH]c3ccc(S(=O)(=O)N4CCCCC4)cc23)CC1	1	1.4
CC1CC(C)CN(CC(O)COCc2ccc(Cl)cc2)C1 (configuration not stated)	1.1	1.5
CCCN1Cc2cccc(C(=O)NC(Cc3ccccc3)C(=O)OCC)c2C1=O (configuration not stated)	0.96	-0.32
Cc1nc(-c2ccccc2)sc1C(=O)Nc1ccccc1	1.2	0.47
CCC(C(=O)Nc1cccc(OC)c1)n1c(C(=O)OC)cc2ccsc21 (configuration not stated)	1	1.6
O=C(CN1CCN(Cc2cccc(Cl)c2)C1=O)N1CCC(Cc2ccccc2)CC1	0.91	-1.2
COc1ccc(C(=O)c2oc3ccccc3c2NC(=O)COc2ccccc2F)cc1	1	0.78
COc1ccc(C(=O)O)cc1Nc1cc(C)nc2ncnn12	0.94	-0.82
CCN(CC)S(=O)(=O)c1ccc2c(c1)N(CC(=O)N(CC(C)C)CC(C)C)C(=O)CS2	0.97	-1.1
COc1ccc(-c2cc(CCCC(=O)NCCc3ccc(Cl)cc3)no2)cc1	1	2
CCn1c(CCCNC(=O)c2ccc(Cl)cc2)nc2ccccc21	1	0.34
CCCCCOc1ccc(-c2ccc(C#N)cc2)cc1	1.6	12
COC(=O)Cn1cnc2c(nnn2-c2ccc(OC)cc2)c1=O	1	1.1
c1ccc(SCc2cn3cccnc3n2)nc1	0.98	-0.18
CCc1ccccc1NC(=O)Cn1c(C(=O)OC)cc2sc(Cl)cc21	1.1	1.7
Cc1ccc2cccc(SCC(=O)NCC3CCCO3)c2n1 (configuration not stated)	1.2	1.5
COc1ccccc1CNC(=O)CCc1c(C)nc2cc(-c3ccccc3)nn2c1C	0.9	-1.7
COc1ccc(-n2c(=O)cc(N3CCCCCC3)[nH]c2=O)cc1	0.98	-0.41
O=C1CC(N2CCC(C(O)(c3ccccc3)c3ccccc3)CC2)C(=O)N1c1ccc(Cl)cc1 (configuration not stated)	1.1	0.54

Some of these compounds in order of length of the SMILES, smallest number first.
SMILES	CBX7 AlphaScr	CBX7 AlphaScr z-score
Cc1ccc2cccc(SCC(=O)NCC3CCCO3)c2n1 (configuration not stated)	1.2	1.5
O=c1c2ccccc2n2c(=O)[nH]nc2n1-c1ccccc1	0.81	-2.3
CCCCc1ccc(NC(=O)c2cnc3scc(C)n3c2=O)cc1	1.2	7.7
COc1ccc(-n2c(=O)cc(N3CCCCCC3)[nH]c2=O)cc1	0.98	-0.41
CC(CCc1ccccc1)NC(=O)CN1CCN(Cc2ccccc2F)C1=O (configuration not stated)	0.98	-0.39
CCCNC(=O)c1ccc2c(c1)N(Cc1ccc(F)cc1)C(=O)CS2	0.78	-2.3
COc1ccc(-c2nnc(SCC(=O)NC3CC3)n2-c2ccccc2)cc1	1.5	4.2
COc1ccc(-c2cc(CCCC(=O)NCCc3ccc(Cl)cc3)no2)cc1	1	2
COc1ccc(Cl)cc1N(C)C(=O)Cc1c(C(=O)O)n(C)c2ccccc12	1.1	1.6
O=C(CN1CCN(Cc2cccc(Cl)c2)C1=O)N1CCC(Cc2ccccc2)CC1	0.91	-1.2
COc1ccc(CC(=O)Nc2ccc(-c3noc(-c4ccccc4Br)n3)cc2)cc1	1.3	3.2
Cc1cc2nc(Nc3nc(C)c(Cc4ccccc4)c(=O)[nH]3)nc(C)c2cc1C	0.89	-1.2
O=C(NCCC1=CCCCC1)c1ccc2c(c1)N(Cc1cccc(Cl)c1)C(=O)CS2	0.98	-0.33
CCC(=O)N1CCc2cc(S(=O)(=O)NCCC(=O)N3CCN(c4ccccc4F)CC3)ccc21	1	0.39
CCc1ccc(NS(=O)(=O)c2ccc3[nH]cc(C(=O)NCC4CCCO4)c(=O)c3c2)cc1 (configuration not stated)	0.85	-1.9

Only part of the results is shown; count on the stated rates, not on these rows.
